# Source: PubChem (National Center for Advancing Translational Sciences (NCATS))
# 2A StopGo – lowers the luciferase signal of an FMDV 2A StopGo reporter | human cells with a luciferase reporter of 2A StopGo recoding; control for the full effect not named in the record | Potency, µM (series often up to 57.9 µM), for the others: at the top dose signal change, negative = less light | hit rate 1.2% among 410,000 | AID 1159524; active = well fitted falling curve with a large enough effect; inconclusive = small, poorly fitted or top-dose-only effect; inactive = no such curve, though single readings can be large or run the other way; tested in HEK293T cells; further: on the % scale 0 is the no-effect control and ±100 the full control effect; nearly all actives have a fitted effect of over 45% in size; luciferase light after 4 h
# NS1 function inh – blocks influenza NS1 protein function; S. cerevisiae slowed by influenza A NS1, growth recovery by OD600; Potency, µM (titrated, usually from 46.1 µM), inactives show top-dose activity, positive = more growth; hit rate 0.4% among 270,000; AID 2326; further: actives are rising curves; nearly all actives have a fitted effect of over 50% in size
#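 OD600 was taken as the measure of yeast growth restored by compound in an NS1-expressing S. cerevisiae strain. Cells had been washed out of glucose medium and diluted 1:100 into galactose -URA medium, pH 6.0.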
# Cruzain inh noDet – blocks cruzain activity in detergent-free assay; P25779; purified cruzain, Z-FR-AMC fluorescence, no detergent; Potency, µM, for the others: max response, negative = inhibition, most hits filed as inhibitors; hit rate 2.3% among 200,000; AID 1476; active means well fitted curve in the direction sought with a large enough effect; inconclusive means small, poorly fitted or top-dose-only effect, or another doubt; inactive means no such curve, though single readings can be large; an effect the other way counts as inactive or inconclusive;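 further: plate controls were enzyme without inhibitor for no effect and buffer without enzyme for full effect; nearly all actives have a fitted effect of over 40% in size; top concentration of the series not given in the record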
# Target sequence (P25779 123-467 limits assumed): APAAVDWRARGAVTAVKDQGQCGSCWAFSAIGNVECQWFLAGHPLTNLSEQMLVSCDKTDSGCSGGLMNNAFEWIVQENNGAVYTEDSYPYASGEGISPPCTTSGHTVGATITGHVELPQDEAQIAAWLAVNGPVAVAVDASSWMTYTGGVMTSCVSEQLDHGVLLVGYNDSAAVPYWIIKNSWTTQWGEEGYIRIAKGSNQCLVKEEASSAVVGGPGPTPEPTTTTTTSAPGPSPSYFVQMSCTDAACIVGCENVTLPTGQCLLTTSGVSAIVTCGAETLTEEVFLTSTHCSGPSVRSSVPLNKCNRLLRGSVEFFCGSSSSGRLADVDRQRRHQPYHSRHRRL
#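 Purified cruzain at 1.5 nM, pre-incubated 15 min with compound at room temperature in 100 mM sodium acetate pH 5.5, 5 mM DTT, 0.00005% Triton X-100. Reaction started with 2 uM Z-FR-AMC; AMC fluorescence increase over 60 s gives rate.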
# Marburg entry inh – blocks Marburg virus binding to or entry into cells | Marburg virus pseudotyped entry inhibition, cell reporter; control for the full effect not named in the record; about a third of the inactives were read at about 46 µM | Potency, µM (highest dose often 37.8 µM), for inactives: at the highest dose activity change, negative = inhibition, usual class: inhibitors | hit rate 1.8% among 300,000; active = well fitted inhibition curve with a large enough effect; inconclusive = small, poorly fitted or top-dose-only effect, or effect the other way; inactive = flat fitted curve, though single readings scatter; tested in HEK293 cells; about a fifth of its hits are not listed in these tables; further: on the % scale 0 is the no-effect control and ±100 the full control effect; luciferase read-out
# RE007 growth inh – less growth of the S. pombe RE007 Vpr strain | S. pombe RE007 Vpr strain, BacTiter-Glo ATP luminescence, 24 h; control for the full effect not named in the record | Potency, µM (top dose mostly 92.2 µM), inactives show top-dose activity change, negative = less growth | hit rate 0.21% among 360,000 | AID 651644; active = well fitted falling curve with a large enough effect; inconclusive = small, poorly fitted or top-dose-only effect; inactive = no such curve, though single readings can be large or run the other way;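 further: on the % scale 0 is the no-effect control and ±100 the full control effect; nearly all actives have a fitted effect of over 50% in size; the assay follows cell death caused by Vpr and the record does not say whether a fall means rescue or toxicity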
#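 Fission yeast strain RE007, carrying one chromosomally integrated HIV-1 vpr copy, was seeded at OD 0.01 in PMG+AL medium with 23 nL pinned compound. After 24 h at 30 °C and 99% humidity, viability was read by BacTiter-Glo luminescence.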
# Lassa entry inh – inhibitors of Lassa virus binding or cell entry. Lassa virus pseudotype entry inhibition, cell reporter; control for the full effect not named in the record. Potency, µM (series often up to 37.9 µM), for the others: at the top dose activity change, negative = inhibition, hits mostly inhibitors. hit rate 1.2% among 300,000; active means well fitted inhibition curve with a large enough effect; inconclusive means small, poorly fitted or top-dose-only effect, or effect the other way; inactive means flat fitted curve, though single readings scatter; tested in HEK293 cells; further: on the % scale 0 is the no-effect control and ±100 the full control effect; nearly all actives have a fitted effect of over 50% in size; luciferase read-out
# SARS PLP yeast – blocks SARS-CoV papain-like protease in a yeast assay; AID 485353; hit rate 0.19% among 330,000; S. cerevisiae expressing SARS-CoV PLpro, growth rescue; control for the full effect not named in the record; Potency, µM (series often up to 32.9 µM), for the others: at the top dose activity, positive = growth rescue; further: 0% is about no effect; nearly all actives have a fitted effect of over 55% in size; growth read by luminescence after 48 h
# Cruzain Triton – inhibitors of Trypanosoma cruzi cruzain with detergent. P25779. purified cruzain, Z-FR-AMC fluorescence, 0.01% Triton. Potency, µM, for the others: max response, negative = inhibition, hits mostly inhibitors. hit rate 0.43% among 200,000; active means well fitted curve in the direction sought with a large enough effect; inconclusive means small, poorly fitted or top-dose-only effect, or another doubt; inactive means no such curve, though single readings can be large; an effect the other way counts as inactive or inconclusive;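 further: plate controls were neutral wells for no effect and buffer without enzyme for full effect; nearly all actives have a fitted effect of over 40% in size; top concentration of the series not given in the record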
#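 In this qHTS format, compounds are incubated with 1.5 nM cruzain for 15 min at room temperature before 2 uM Z-FR-AMC is added. Release of AMC is followed at 360/450 nm, and progress is taken as the 60 s fluorescence difference.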
# An asterisk follows results filed as active; u = inconclusive; x = no result given; & = joins results of further samples; [ ] = dose if it differs, or a comment. Unless noted, the call rests on the fitted dose curve; in most records, active means well fitted rising curve with a large enough effect; inconclusive means small, poorly fitted or top-dose-only effect; inactive means no such curve, though single readings can be large or run the other way. Potency means the concentration at half of the fitted maximal effect.
SMILES,2A StopGo,NS1 function inh,Cruzain inh noDet,Marburg entry inh,RE007 growth inh,Lassa entry inh,SARS PLP yeast,Cruzain Triton
Cc1cc(C)n(-c2ccc(Cl)c(C(=O)O)c2)n1,-8%,-9%,x,10%[46.1 µM],-5%,6%[46.1 µM],0%,x
CCc1ccccc1NC(=O)N1CCN(c2nnc(C)c3c(C)n(-c4ccccc4)nc23)CC1,-25%,x,2%,x,x,26%[46.1 µM],x,-0.2%
CCc1nn(CC(=O)NCC(C)c2ccccc2)c(=O)c2cc3c(OC)cccc3n12 (stereo not given),-16%,x,12%,2%[46.1 µM],x,x,x,-0.1%
O=C(Nc1ccc(O)cc1)/C(=C/c1ccco1)NC(=O)c1ccccc1,-10%,-2%,x,x,5%,x,1%,x
CCCCCCCOC(=O)c1nc(Cl)c(Cl)c(N)c1Cl,10%,-33%,5%,u,u,0%,-52%,-13%
Cc1ccc(NC(=O)c2cc(N3C(=O)CCC3=O)ccc2N2CCCCC2)cc1,-13%,-2%,x,x,-8%,x,0%,x
COc1cc(Nc2cc(C)nc3ncnn23)cc(OC)c1,-8%,0%,8%,x,1%,x,2%,2.2%
COc1ccc2c(c1)c1c(c(=O)n(-c3ccccc3C)c(=O)n1CC(=O)Nc1c(C)cccc1C)n2C,0%,x,14%,x,x,3%[46.1 µM],x,0.9%
CCNC(=O)/C(C#N)=C/c1c(N2CCN(c3ccccc3)CC2)nc2ccccn2c1=O,15%,4%,x,x,7%,x,1%,x
CCCN(CC(=O)Nc1ccccc1OC)Cc1c(O)ccc2ccccc12,-3%,9%,x,10%[46.1 µM],-4%,-10%,-34%,x
CCOc1ccc(C(=O)Nc2ccc(N3CCN(C)CC3)cc2)cc1[N+](=O)[O-],-7%,3%,x,u,-7%,u,1%,x
COc1cccc(OC)c1C(=O)N1CCOCC1,19%,-2%,-12%,-9%,0%,52%[14.3 µM],-1%,-0.2%
O/N=C/c1nc2cc(Cl)ccc2o1,23%,-5%,x,20%[46.1 µM],-16%,-6%,-7%,x
O=C(NC1CCCCC1)C1CCC(=O)N(C2CC2)C1 (stereo not given),4%,5%,x,x,5%,x,5%,x
O=C(O)c1cc(-c2ccc(O)cc2)on1,-20%,3%,x,-3%[46.1 µM],9%,-25%,0%,x
O=C(Cn1nnc2ccccc21)c1cccc([N+](=O)[O-])c1,-20%,19%,-1%,11%,x,2%,8%,-2.5%
COc1ccc(CCCC(=O)Nc2ccccc2F)cc1,54%[activator],-6%,-10%,9%,3%,0%,6%,-2.2%
O=C(O)c1cn(-c2ccc(F)cc2)c2cc(Cl)c(F)cc2c1=O,-12%,-14%,x,1%[46.1 µM],-17%,-1%[46.1 µM],-7%,x
Cc1c(NS(=O)(=O)c2ccc(N)cc2)c(=O)n(-c2ccccc2)n1C,-9%,-6%,x,0%,-8%,-1%,x,x
CCCC(=O)n1nc(-c2cccnc2)nc1NCc1cccs1,0%,x,x,30%[46.1 µM],22%,7%,-8%,x
Cc1ccc(S(=O)(=O)CCC(=O)NCc2ccc(Cl)cc2)cc1,-7%,1%,-8%,0%,-7%,-8%,14%,-3.8%
COCCNC(=O)CSC1=N/C(=C/c2ccc(Cl)c(Cl)c2)C(=O)N1c1ccccc1F,u,7%,4%,u,-4%,-28%,u,-6.8%
CCCCc1ccc(-c2ccc(Br)cc2O)nc1,59%[activator],2%,4%,u,12%,7%,-7%,-1.2%
O=C(Nc1ccccc1)c1cccc(N2CCCC2=O)c1,15%,1%,u,u,2%,u,-10%,-7.0%
N#Cc1nc(-c2ccc(F)cc2)oc1NCc1cccc2c1OCO2,44%[activator],-2%,-6%,10%,-1%,13%,0%,-9.9%
CCCCNS(=O)(=O)c1ccc(N2CCCCS2(=O)=O)cc1,20%,x,-1%,x,x,-5%[46.1 µM],x,-0.7%
O=C(C1CCC(C(=O)N2CCCCC2)CC1)N1CCCCC1 (stereo not given),-27%,-4%,-3%,u,9%,-4%,-1%,3.0%
CCOc1ccc(CN2CCN(Cc3cccn3-c3ncccn3)CC2CCO)cc1 (stereo not given),-18%,4%,x,u,-8%,8%,0%,x
O=C1CC(c2ccccc2)Cc2[nH]c(=O)c(-c3nc(-c4ccc(F)cc4)cs3)cc21 (stereo not given),-20%,x,5%,u,x,-23%[46.1 µM],x,4.9%
CC1CC(C)CN(c2nc3c(c(=O)[nH]c(=O)n3C)n2CCCSc2nc3ccccc3s2)C1 (stereo not given),-11%,x,x,0%&13%,1%,-7%,x,x
NC(=O)c1ccccc1NS(=O)(=O)c1ccc(F)cc1,3%,7%,x,8%[46.1 µM],6%,-24%,-1%,x
CCN1CCCC1CN(Cc1cc2cc(C)ccc2[nH]c1=O)C(=O)Nc1ccccc1OC (stereo not given),-15%,11µM*,-6%,u,-1%,9%,5%,1.9%
Cc1ccc2c(=O)c(C(=O)c3ccc(F)cc3)cn(CC(=O)NCc3ccccc3)c2n1,-16%,x,3%,x,x,1%[46.1 µM],x,-0.6%
Cc1ccc(C)c(/C=C2\CCn3c2nc2cc(C(=O)O)ccc2c3=O)c1,-13%,2%,x,x,0%,x,2%,x
Cn1c(=O)n(C)c2cc(S(=O)(=O)N3CCOCC3)ccc21,10%,-3%[9.22 µM],-5%,-1%,-6%,u,3%,3.3%
Cc1cccnc1NC1CCCCC1,22%,x,x,24%,1%,5%,2%,x
CCOC(=O)c1c(C)c2c(n1C)CCC/C2=N\O,-27%,-14%,8%,-5%,-20%,-6%,1%,0.6%
Cc1ccccc1NC(=O)c1cccc(C(=O)Nc2ccccc2C)n1,-18%,12%,x,-10%[46.1 µM],-5%,3%[46.1 µM],5%,x
Cc1cc(OCC(=O)NNC(=S)NCC2CCCO2)cc(C)c1Cl (stereo not given),4%,28%,x,0%,6%,u,-8%,x
c1ccc(Cn2c(Nn3cnnc3)nc3ccccc32)cc1,-22%,-4%,7%,-13%,10%,-5%,3%,1.2%
O=C(c1ccco1)N1CCN(C(=O)C2CC(c3ccc(Cl)cc3)=NO2)CC1 (stereo not given),u,-3%,5%,1%[46.1 µM],3%,1%,6%,-1.2%
N#CC(C(=O)OC1CCCCC1)c1nc2ccccc2nc1N1CCOCC1 (stereo not given),0%,-62%,13%,7%,-4%,-10%,-3%,-3.7%
COc1ccccc1C(=O)OC1CCCN(C)C1 (stereo not given),-17%,2%,x,x,3%,x,0%,x
COc1nc(-c2ccccc2)c2cc(C)ccc2n1,-12%,-3%,x,-19%,-14%,-4%,19%,x
Cc1cc(C)c(C(=O)Nc2ccc(Br)c(C(F)(F)F)c2)c(C)c1,u,-2%,1%,u,3%,u,-91%,-4.9%
CCC(Sc1ccccc1C(=O)O)C(=O)O (stereo not given),10%,0%,3%,u,8%,9%,-7%,3.1%
Cc1cccc(NC(=O)c2ccc(S(=O)(=O)N3CCCCC3)cc2)n1,-13%,4%,x,x,9%,x,1%,x
O=C(NCc1ccc(F)cc1)c1cnccn1,14%,-2%,x,-8%[46.1 µM],-6%,13%[46.1 µM],-8%,x
N/C(=N\OC(=O)c1ccco1)c1cccc([N+](=O)[O-])c1,57%[activator],2%,x,11%[14.2 µM],-3%,17%,-1%,x
Cn1c(=O)oc2cc(S(=O)(=O)NC3CCCCC3)ccc21,38%[activator],-2%,x,-13%[46.1 µM],-2%,17%[46.1 µM],2%,x
Cc1cc2c(cc1C)N(C(=O)CN1C(=O)c3ccccc3C1=O)C(C)(C)c1ssc(=S)c1-2,u,25%,2.5µM*,u,-1%,u,-5%,-0.9%
CN1N=C(C(=O)N2CCc3c([nH]c4ccccc34)C2c2c(F)cccc2Cl)CCC1=O (stereo not given),8%,3%,x,6%[46.1 µM],0%,u,-1%,x
O=C(/C=C\c1ccc2c(c1)OCO2)NC1CC(=O)N(c2ccccc2)C1 (stereo not given),-16%,x,-29%,x,x,-21%[46.1 µM],x,-12%
Cc1cc(C)cc(NC(=O)CSc2nncn2-c2ccccn2)c1,-13%,-3%,x,-22%[46.1 µM],31%,0%,1%,x
COc1ccc(-c2nnc(NC(=O)c3c(OC)cccc3OC)s2)cc1,4%,7%,x,x,-11%,x,8%,x
COc1ccc(NC(=O)c2oc3ccccc3c2NC(=O)Cc2coc3cc(C)ccc23)cc1,40%[activator],x,-21%,9%[46.1 µM],x,-13%[46.1 µM],x,-2.5%
Cn1c(CN2CCCC2)nc2cc(NC(=O)COc3ccc([N+](=O)[O-])cc3)ccc21,0%,5%,0%,u,-15%,12%,-35%,-14%
COc1ccc(CNC(=O)C2CCCN(S(=O)(=O)c3ccc(Br)s3)C2)cc1 (stereo not given),-11%,-3%,x,-7%[46.1 µM],19%,u,-1%,x
Cc1ccc(OCCOC(=O)CCc2nc3ccccc3c(=O)[nH]2)cc1,-29%,-7%,x,24%[46.1 µM],11%,-10%,0%,x
COc1ccc(NC(=O)CCn2cnc3onc(-c4ccc(F)cc4)c3c2=O)cc1OC,10µM*,x,4%,x,x,0%[46.1 µM],x,4.5%

# The listing continues.
SMILES,2A StopGo,NS1 function inh,Cruzain inh noDet,Marburg entry inh,RE007 growth inh,Lassa entry inh,SARS PLP yeast,Cruzain Triton
CCN(C(=O)CSc1nc2ccccc2o1)c1c(N)n(Cc2ccccc2)c(=O)[nH]c1=O,-29%,x,x,-6%,-15%,1%[46.1 µM],-1%,x
Cc1ccc(C(=O)NCC(=O)OCc2cccc(Br)c2)cc1,-13%,x,x,13%,-7%,12%,2%,x
Cc1c(NC(=O)/C(C#N)=C/c2ccc(-c3cc(Cl)ccc3Cl)o2)c(=O)n(-c2ccccc2)n1C,-12%,3%,9%,5%,-24%,17%,-20%,-7.5%
COc1ccc(C(=O)N2CCNC(=O)C2)cc1S(=O)(=O)Nc1ccc(Br)cc1,37%[activator],x,x,9%,-6%,8%,-1%,x
CCN(C(=O)CSc1nnc(NC2CCCCC2)s1)C1CCS(=O)(=O)C1 (stereo not given),21%,-3%,-2%,12%,2%,u,2%,-3.0%
Cc1ccc(S(=O)(=O)c2nnn3c2nc(N2CCCCC2)c2sccc23)cc1,-2%,x,-8%,x,x,21%[46.1 µM],x,-1.1%

# Compounds were not picked by outcome; any-hit rate near 4.8%.
